Beta cell apopt – inhibitors of cytokine-induced beta cell apoptosis, primary screen, luminescence. INS-1E cytokine-induced death, ATP luminescence, 48 h; percent of positive-control rescue, neutral wells zero. protection from apoptosis, % (no concentration beside the values). 0.8% of 300,000 active. AID 435005, 2010;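 active means all replicates at 75% or more, or half of them and the mean; inconclusive means half reach 75% but not the mean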;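 further: 0% = cytokine-treated negative control wells and 100% = positive control rescue; higher means more ATP so stronger rescue from cytokine killing; wells of about 40 µL received 100 nL stock; the first replicate is given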
T cruzi repl – inhibitors of intracellular T. cruzi growth, primary screen, luminescence, NIH3T3 host cells; T. cruzi beta-gal in NIH3T3, 90 h; inhibition, % (test concentration not listed); 1.4% of 300,000 active; AID 1885, 2009;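 active means mean inhibition across valid replicates above about 55%, limit read from the data; inconclusive means mean below that limit but half or more replicates reach it; inactive means mean below it, under half of replicates reach it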;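 further: signal also drops with host cell toxicity which is not excluded here; 0% = plate median of DMSO wells and 100% = zero luminescence signal; higher percent means less beta-gal luminescence so fewer parasites; stock transfer was 50 nL into about 50 µL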
RanGTP-Impb inh – inhibitors of RanGTP-importin-beta interaction, primary screen, biochemical, FRET, CFP-Ran, YFP-importin-beta, homogeneous | Ran GTPase (GTP-bound) - importin-beta complex | cell-free CFP-Ran/YFP-importin-beta FRET ratio | inhibition, % (test concentration not listed) | 1.1% of 300,000 active;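 active means most replicates above 15%; inconclusive means exactly half above 15%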;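 further: 0% = DMSO wells and 100% = Ran loaded with GDP instead of GTP; wells of about 40 µL received 100 nL stock; the first replicate is given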
LANA-H2B inh – blockers of LANA interaction with H2A/H2B – biochemical, FP readout, HTS, primary screen | Protein LANA1 (Human herpesvirus 8 type P (isolate GK18)), Q9QR71 | cell-free LANA-H2A/H2B peptide, fluorescence polarization | inhibition, % (concentration not given with the values) | 0.6% of 320,000 active; in the data active means inhibition mostly above about 10%, no sharp cut-off; inactive means mostly below about 6.7%;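 further: stock transfer was 7.5 nL into about 10 µL; 0% = median of vehicle wells and 100% = median of positive control wells; one replicate is shown; the record names a cut of 25% in any replicate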
A1 inh – caspase 3/7 activation in MEF A1-2A-BIM cells, primary screen, A1 inhibitor project, cell-based, luminescence, HTS; Caspase-Glo 3/7 luminescence, 3 h; percent of clofoctol response, vehicle zero; caspase activation, % (test concentration not listed); 0.066% of 330,000 active; AID 2462, 2010;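 active means over half of replicate activation scores above 10%, or exactly half above 10 with the replicate mean above 10; inconclusive means replicate mean below 10 yet half the replicates above 10; inactive means over half of replicates below 10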;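 further: wells of about 30 µL received 50 nL stock; many hits fall short of the cut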
B2AR ag – beta2AR agonists driving receptor internalization, primary screen, cell-based, FAP fluorogen, flow cytometry | Beta-2 adrenergic receptor (Homo sapiens), P07550 | Am2.2-beta2AR cells; reference of the scale not given here | response, % (test concentration not listed) | 0.43% of 340,000 active | AID 504454, 2011;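 active means response above a set limit, near 3 SD of response in nonfluorescent compounds, cut at about 42% in these data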;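 further: stock transfer was 100 nL into about 11 µL; a reference agonist was the positive control; negative values mostly stem from fluorescent compounds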
Target sequence (P07550 whole entry, looked up): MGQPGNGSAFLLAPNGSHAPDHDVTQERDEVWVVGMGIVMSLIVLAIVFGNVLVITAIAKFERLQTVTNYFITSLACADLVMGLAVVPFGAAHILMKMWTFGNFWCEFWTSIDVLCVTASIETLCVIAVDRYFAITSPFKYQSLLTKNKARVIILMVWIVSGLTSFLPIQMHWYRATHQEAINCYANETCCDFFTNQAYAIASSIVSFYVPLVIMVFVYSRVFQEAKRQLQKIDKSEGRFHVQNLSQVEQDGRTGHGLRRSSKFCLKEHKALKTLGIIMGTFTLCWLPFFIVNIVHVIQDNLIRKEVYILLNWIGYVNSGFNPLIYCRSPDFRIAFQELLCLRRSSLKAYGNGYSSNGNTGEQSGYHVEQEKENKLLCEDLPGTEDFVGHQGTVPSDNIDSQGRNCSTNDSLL
Calb FLC – C. albicans growth inhibition with fluconazole, primary screen, CaCi-2 strain, Alamar Blue fluorescence | C. albicans CaCi-2 (fluconazole-resistant clinical isolate) + fluconazole, 48 h | growth inhibition, % (concentration not given with the values) | 0.57% of 300,000 active | AID 1979, 2009;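 active means most replicates above 75%; inconclusive means exactly half above 75%; inactive means most below 75%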;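 further: all wells also contain fluconazole at 8 µg/ml as a sub-toxic cotreatment; 0% = median of DMSO wells and 100% = median of geldanamycin control wells; wells of about 8 µL received 7.5 nL stock; the first replicate is given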
UCH37 inh – inhibitors of human UCH37 deubiquitinase, primary screen, biochemical, Ub-AMC cleavage, fluorescence; inhibition, % (no concentration beside the values); 0.33% of 330,000 active; Ubiquitin carboxyl-terminal hydrolase isozyme L5 (Homo sapiens), Q9Y5K5; purified proteasome/UCH37;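 active means mean of two replicates above 20%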;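 further: 0% = compound-free wells with enzyme and 100% = wells lacking proteasome; stock transfer was 100 nL into about 20 µL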
Target sequence (Q9Y5K5 whole entry, looked up): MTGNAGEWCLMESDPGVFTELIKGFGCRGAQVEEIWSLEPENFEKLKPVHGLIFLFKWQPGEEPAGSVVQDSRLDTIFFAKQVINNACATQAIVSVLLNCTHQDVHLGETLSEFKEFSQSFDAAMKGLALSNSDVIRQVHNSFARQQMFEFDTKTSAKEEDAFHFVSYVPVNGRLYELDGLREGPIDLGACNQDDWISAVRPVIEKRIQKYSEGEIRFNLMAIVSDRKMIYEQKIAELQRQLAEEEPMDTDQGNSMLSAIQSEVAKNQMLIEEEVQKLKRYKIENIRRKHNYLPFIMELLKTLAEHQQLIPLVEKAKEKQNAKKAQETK
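system = Proteasome-associated human UCH37 deubiquitinase | amount = 0.15 nM proteasome as dispensed | medium = pH 7.4 Tris-HCl (50 mM) with ovalbumin, ATP-MgCl2, DTT | incubation = 30 min preincubation with enzyme, 25 min cleavage at room temperature | detection = AMC fluorescence 355/460 nm | read-out basis = percent inhibition | controls = no-proteasome and no-compound wells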
An asterisk follows results filed as active; ? = inconclusive; · = not tested or not shown.

SMILES	Beta cell apopt	T cruzi repl	RanGTP-Impb inh	LANA-H2B inh	A1 inh	B2AR ag	Calb FLC	UCH37 inh
Nc1ccc(S(=O)(=O)N2CCCC2)cc1Cl	-6.2	2.0	2.6	-2.4	1.7	-1.6	4.2	1.4
CCC(C)NC(=O)CC(NS(=O)(=O)c1ccc(Cl)cc1)c1ccco1 (stereo not given)	·	-10.3	-2.4	0.2	0.3	0.4	-4.2	1.9
COc1cc2c(cc1NC(=O)CCCN1C(=O)CCC1=O)oc1ccccc12	·	-0.1	0.3	-0.9	0.1	-0.8	-0.4	2.5
CC(=O)NC1(C(F)(F)F)NC(=O)N(c2ccc(F)cc2)C1=O (stereo not given)	-4.8	-14.5	0.6	1.5	-0.1	-6.0	4.7	2.0
O=C1N/C(=C/c2cccn2-c2ccc(F)cc2)C(=O)N1Cc1ccccc1F	-1.1	17.2	?	-2.1	0.7	-2.3	-5.8	-25.1
O=C(c1ccc(S(=O)(=O)N2CCCCCC2)cc1)N1CCN(Cc2ccccc2)CC1	-4.2	·	·	-2.2	0.2	-10.4	·	3.3
COc1cccc(C(=O)COc2ccccc2-c2ccccc2)c1	-3.8	8.5	-1.0	3.5	2.1	-0.5	11.5	4.9
CC(NCC(=O)Nc1cc(S(=O)(=O)N2CCCCCC2)ccc1Cl)c1ccccc1 (stereo not given)	4.2	12.4	-1.5	2.4	-0.3	1.9	9.8	0.3
COc1ccc(/C=C2\SC(=O)N(CCCC(=O)Nc3ccc(C(=O)O)cc3)C2=O)cc1OC	-2.5	-6.3	0.6	2.2	0.8	4.1	-21.1	2.0
O=c1c2[nH]c3ccc(F)cc3c2ncn1Cc1ccncc1	0.2	-0.3	4.4	5.2	0.4	-2.9	14.3	-9.4
CC1(C)Cc2c(c(N3CCOCC3)nc3sc(C(N)=O)c(N)c23)CO1	-11.0	4.8	6.5	1.0	0.0	3.8	15.3	-203.7
Cc1ccc(Oc2cc(NC(=O)CCCn3nc([N+](=O)[O-])c(Cl)c3C)cc([N+](=O)[O-])c2)cc1	2.6	51.9	?	1.1	0.1	2.8	27.2	6.2
COc1ccccc1Cn1c(C)nnc1-c1cnn(C)c1N	-6.3	-10.6	8.5	1.6	-0.7	7.2	-11.0	0.1
CCOc1ccc(N(C(=O)c2snc(C(N)=O)c2N)C(CC)C(=O)NC2CCCC2)cc1 (stereo not given)	1.0	6.8	3.7	-0.5	0.3	-5.2	-1.7	·
CC(C)[C@@H]1COC(c2cccc(C3=N[C@H](C(C)C)CO3)n2)=N1	-9.9	0.4	1.0	-1.0	0.3	-21.8	-4.9	-2.7
O=C(N/N=C/c1cccc(O)c1)c1ccc(NC(=O)c2cccc([N+](=O)[O-])c2)cc1	7.5	-7.8	1.1	0.0	0.1	19.1	41.3	·
COc1ccc(OCc2cc(C(=O)N3CCSCC3)no2)c(Cl)c1	-0.4	-8.3	0.1	3.7	-0.8	-9.3	-11.3	1.8
CCCN1CCN(C(=O)C(C)n2nc(C)c3sc4ccccc4c3c2=O)CC1 (stereo not given)	-0.5	2.4	-1.7	-0.7	1.3	-5.0	2.0	-2.3
COc1ccccc1CNC(=O)C1CCN(C(=O)NC2CCCCC2)CC1	-4.3	-6.8	·	-1.8	0.6	-0.7	-1.3	1.6
O=C(NCc1nnnn1-c1ccc(F)cc1)C1CC(=O)N(c2ccc(F)cc2)C1 (stereo not given)	-0.2	-6.7	8.2	7.3	0.3	0.4	2.6	2.1

Brought forward from above: 3 compounds, followed by the next part.
SMILES	Beta cell apopt	T cruzi repl	RanGTP-Impb inh	LANA-H2B inh	A1 inh	B2AR ag	Calb FLC	UCH37 inh
CCCN1CCN(C(=O)C(C)n2nc(C)c3sc4ccccc4c3c2=O)CC1 (stereo not given)	-0.5	2.4	-1.7	-0.7	1.3	-5.0	2.0	-2.3
COc1ccccc1CNC(=O)C1CCN(C(=O)NC2CCCCC2)CC1	-4.3	-6.8	·	-1.8	0.6	-0.7	-1.3	1.6
O=C(NCc1nnnn1-c1ccc(F)cc1)C1CC(=O)N(c2ccc(F)cc2)C1 (stereo not given)	-0.2	-6.7	8.2	7.3	0.3	0.4	2.6	2.1
CCCC1(C(=O)O)NC(c2ccccc2O)C2C(=O)N(Cc3ccccc3)C(=O)C21 (stereo not given)	·	0.0	?	-1.1	1.0	3.7	21.2	6.1
CCOC(=O)C1CC(c2ccc(Cl)cc2)=NNC1=O (stereo not given)	-1.2	2.8	-1.5	2.9	0.2	-1.0	-22.7	3.5
CCOc1ccc(CN2CCN(Cc3ccc4cc(F)ccc4n3)CC2CCO)cc1 (stereo not given)	·	52.2	-0.5	2.5	0.6	0.7	-7.8	0.7
CNC(=O)C1CC(=O)N(CCc2ccc(OC)c(OC)c2)C(=Nc2ccc(F)cc2)S1 (stereo not given)	-0.2	-7.6	0.7	0.6	-0.6	-6.2	-4.9	4.4
O=C(CNC(=O)c1ccco1)OCc1ccc(C(=O)c2ccccc2)cc1	-13.0	-11.0	-1.5	-1.6	-0.7	4.4	-20.1	1.4
Cc1cc(C)nc(/N=C2\NC(=O)CC(C(=O)O)N2CCc2c[nH]c3ccccc23)n1 (stereo not given)	3.1	-0.5	1.4	5.3	0.7	-5.9	-3.3	2.3
Cc1cccc(C)c1NC(=O)CN(c1ccccn1)S(=O)(=O)c1ccc(F)cc1	2.6	-1.6	-2.1	3.4	-0.5	-8.3	25.8	-35.3
CCOC(=O)c1ccc(N2C(=O)C(O)=C(C(C)=O)C2c2ccc(O)c(OC)c2)cc1 (stereo not given)	-4.2	6.8	2.0	-0.1	0.2	-9.3	-4.6	8.0
O=C(CCCn1c(=O)oc2ccccc21)N1CCc2ccccc2C1	-1.1	-12.0	1.3	1.5	-1.4	-9.5	-4.1	11.0
CC1(C)CC(CC(=O)Nc2ccc([N+](=O)[O-])cc2)C(=O)O1 (stereo not given)	-2.8	1.2	-2.7	-3.4	0.6	-1.9	-11.2	6.6
CC(=O)c1cccc(N(C(=O)c2ccco2)C(C(=O)NC2CCCC2)c2ccc(N3CCOCC3)cc2)c1 (stereo not given)	-4.9	17.8	2.7	-0.7	0.3	-2.2	1.1	0.0
Cc1c(C(=O)Nc2ccc(F)cc2)sc2ncn(CC(=O)N3CCCCC3)c(=O)c12	3.1	16.2	0.0	-1.5	0.5	-8.6	-3.8	2.2
COc1cccc(-c2cc(C(=O)N3CCN(c4ccc(F)cc4)CC3)no2)c1	-2.3	-3.9	2.3	-4.2	0.2	-2.6	1.2	-0.7
COc1cccc(C(=O)c2cn(CC(=O)NCc3ccco3)c3nc(C)ccc3c2=O)c1	-5.0	-4.5	-3.8	0.7	-0.1	4.0	11.2	-0.1
COc1ccc(F)cc1C(=O)C1CCCN(Cc2c(C)n(C)n(-c3ccccc3)c2=O)C1 (stereo not given)	-8.1	-1.0	-1.0	0.3	-0.2	1.2	-9.3	-15.6
O=C(OCCN1C(=O)c2cccc3c(N4CCOCC4)ccc(c23)C1=O)c1cccc(Cl)c1	-1.2	-0.7	-489.0	36.8*	-0.4	·	-1.7	-24.6
COc1ccc(C2(c3ccc(OC)cc3)NC(=O)N(CC(=O)Nc3ccc(C(=O)N(C)C)cc3)C2=O)cc1	·	-1.5	?	-8.4	-1.4	4.9	4.3	0.7
Cc1cc(Br)c2[nH]cc(CCNC(=O)c3ccco3)c2c1	-4.7	8.4	3.9	10.4	0.2	-3.2	14.7	2.0
Cc1ccc(S(=O)(=O)C2(C(=O)N3CCCC(C)C3)CC2)cc1 (stereo not given)	-3.5	7.1	5.0	2.8	2.1	-2.6	-17.6	1.1
CN1C/C(=C/c2cccs2)C(=O)/C(=C\c2cccs2)C1	-1.5	30.0	1.5	-2.2	-0.6	-14.1	-6.2	3.0
COC(=O)c1ccc(NC(=O)CCn2cccc2)cc1	-2.2	3.9	-0.4	-0.4	0.0	1.6	3.8	-4.3
CCOCCCNC(=O)C1(O)c2ccccc2NC(=O)N1c1ccc(C)c(C)c1 (stereo not given)	-0.9	3.2	2.4	2.8	0.8	-4.3	-6.9	0.3
COc1ccccc1CNC(=O)COC(=O)C1CC1	-8.2	·	·	8.1	0.1	-4.2	·	1.7
COC(=O)[C@H]1C[C@H]1[C@@H](NC(=O)c1ccc[nH]1)c1ccccc1	-7.4	-22.7	4.7	4.8	1.0	0.5	-8.4	0.4
CCOc1ccc(C(=O)NCC(=O)Nc2ccc(N3CCOCC3)cc2)cc1OCC	2.3	3.8	1.6	4.3	0.1	8.4	16.8	3.3
Cc1c(C(=O)N2CCCC2)oc2c1-c1nn(CC(=O)NCCCOC(C)C)cc1CC2	0.1	2.8	-3.0	-1.2	0.5	-16.7	4.8	2.7
Cc1nc(-c2ccccc2)nc2[nH]c(C(C)C)cc(=O)c12	8.7	47.9	5.4	3.8	1.4	-5.0	26.3	2.0
CCSCc1nnc(SCC(=O)Nc2cccc(SC)c2)n1C	5.3	-9.6	-2.0	3.4	-1.2	1.6	-7.3	5.9
Cc1ccc(CNC(=O)Cn2cncn2)cc1	-0.9	1.5	-3.2	1.1	0.7	-3.1	-5.5	2.4
O=C(CCNC(=O)c1ccccc1Cl)NCC1CCCO1 (stereo not given)	-8.3	-18.4	-2.3	2.9	-0.5	1.0	-4.6	3.8
COc1ccc(C2c3ccsc3CCN2C(C)=O)cc1 (stereo not given)	-1.8	-11.6	0.5	1.1	1.3	1.4	-7.0	4.6
S=c1[nH]nc(CSc2nc3ccccc3s2)n1Cc1ccccc1	0.1	-11.7	-0.6	-4.7	0.2	0.9	-1.4	1.5
Cc1ccc(CNC(=O)Cn2cnc(S(=O)(=O)N3CCCCC3)c2)o1	-1.7	-32.0	5.2	-0.5	-1.0	1.8	41.3	6.2
O=C(N1CCCC1)C12CC3CC(C1)CC(C(=O)N1CCCC1)(C3)C2	-1.3	-14.8	-0.3	15.6*	0.1	3.7	0.1	15.8
c1ccc(C2Nc3cccc4cccc(c34)N2)cc1	-5.7	-4.8	0.1	2.8	0.3	8.2	11.6	·
COc1ccc(-c2nnc(NC(=O)C(C)C)o2)cc1	-6.5	4.9	?	2.3	0.3	-12.8	-3.8	4.1
CCOc1ccc(C(=O)Cn2cnnc2C#N)cc1	-3.4	-9.0	-1.2	-0.5	0.4	-9.4	-5.1	0.2
COc1cc(/C=C2\C(C)=C(C#N)c3nc(N)c(C#N)c(C)c32)ccc1OCC(=O)O	-1.4	-2.7	-2.2	16.0	-0.4	9.1	-7.4	·
Cc1c(/C(O)=C2/C(=O)C(=O)N(CCN3CCOCC3)C2c2ccccn2)cnn1-c1ccccc1 (stereo not given)	1.7	2.3	34.6*	4.6	-2.7	6.6	-1.3	10.5
